Bioassay records: PubChem, National Center for Advancing Translational Sciences (NCATS)
miR-21 reporter – miR-21 reporter, rising signal; HeLa miR-21 FLuc reporter, luciferase, 48 h; Potency, µM (titrated, usually from 38.3 µM), for inactives: top-dose reporter change, positive = more light; 340,000 tested, under 10 active; active = well fitted rising curve with a large enough effect; inconclusive = small, poorly fitted or top-dose-only effect; inactive = no such curve, though single readings can be large or run the other way;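 note: % of control where 0% means no effect; miR-21 action dims this reporter so a rising signal means less miR-21 action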
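HeLa cells endogenously expressing miR-21, stably carrying CMV-driven firefly luciferase with a downstream miR-21 binding site, 2000 cells/well. Titrations up to approximately 40 uM, 48 hours; luciferase luminescence read.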
Rango-impB inh – inhibitors of Rango-importin beta complex formation | Rango CFP/YFP FRET sensor + importin beta, 45 min | Potency, µM (titrated, usually from 92.2 µM), for inactives: top-dose inhibition of complex formation | 340,000 tested, 0.031% active | Q14974 | AID 540263; active = rising FRET ratio curve, often small or poorly fitted; inconclusive = mostly compound fluorescence or quenching in the first reads; inactive = flat curves in all reads;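 note: potency is the fitted concentration of half-maximal effect; 0% = DMSO wells and 100% = buffer wells lacking importin beta; nearly all actives have a fitted effect of over 15% in size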
Target sequence (Q14974 whole entry, looked up): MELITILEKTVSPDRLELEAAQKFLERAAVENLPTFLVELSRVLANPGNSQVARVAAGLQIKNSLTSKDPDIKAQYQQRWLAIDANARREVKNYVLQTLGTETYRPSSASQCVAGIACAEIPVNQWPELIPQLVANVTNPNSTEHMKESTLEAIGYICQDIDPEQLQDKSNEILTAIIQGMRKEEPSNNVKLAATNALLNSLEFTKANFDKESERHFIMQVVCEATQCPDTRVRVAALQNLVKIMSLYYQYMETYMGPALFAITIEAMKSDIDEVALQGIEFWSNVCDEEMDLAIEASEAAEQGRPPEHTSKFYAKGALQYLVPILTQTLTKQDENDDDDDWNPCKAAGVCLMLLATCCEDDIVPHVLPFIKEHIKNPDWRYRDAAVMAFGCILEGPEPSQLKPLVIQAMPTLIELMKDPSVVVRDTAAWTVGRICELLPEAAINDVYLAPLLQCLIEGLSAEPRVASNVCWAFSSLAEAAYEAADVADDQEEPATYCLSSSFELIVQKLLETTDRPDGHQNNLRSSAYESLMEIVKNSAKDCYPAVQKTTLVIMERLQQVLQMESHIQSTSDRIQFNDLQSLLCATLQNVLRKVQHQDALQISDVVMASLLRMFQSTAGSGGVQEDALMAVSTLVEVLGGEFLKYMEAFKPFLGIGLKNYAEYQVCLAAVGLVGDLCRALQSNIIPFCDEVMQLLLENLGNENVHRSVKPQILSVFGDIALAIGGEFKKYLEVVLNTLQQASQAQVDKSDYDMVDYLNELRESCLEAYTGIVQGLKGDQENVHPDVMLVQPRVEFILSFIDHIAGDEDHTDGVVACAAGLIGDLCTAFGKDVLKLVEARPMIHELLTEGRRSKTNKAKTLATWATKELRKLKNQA
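FRET biosensor Rango (snurportin 1 IBB between N-terminal EYFP and C-terminal Cerulean), 50 nM in PBS/1 mM DTT/0.02% Tween-20/0.1% BSA, preincubated 5 min RT with compound; 0.125 microM importin beta added, 45 min RT, CFP/YFP FRET ratio read.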
Rango release inh – inhibition of RanGTP-driven Rango-importin beta dissociation. 340,000 tested, 0.071% active. Biochemical FRET Rango-importin beta, RanGTP-induced dissociation. O95149+P62826. Potency, µM (doses to about 46.1 µM), without a hit: at the top dose activity change, negative = inhibition. AID 540253; active means falling FRET ratio curve, often poorly fitted, with flat reads before Ran was added; inconclusive means other falling curves, or compound fluorescence or quenching; inactive means flat or rising ratio curve;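 note: potency is the fitted concentration of half-maximal effect; % of control where 0% means no effect; nearly all actives have a fitted effect of over 45% in size; -100% = wells without RanGTP and RCC1; the record marks most hits as doubtful in a second field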
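Rango (0.1 uM)–importin beta (0.25 uM) complex; RanGTP-RCC1 trigger; 45 min RT; CFP/YFP FRET read.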
GLA inh pH 4.5 – inhibitors of human alpha-galactosidase A at pH 4.5; P06280; activity change, negative = inhibition, % at 105 µM; purified enzyme, 4-MU-alpha-Gal fluorescence, pH 4.5; 230,000 tested, under 10 active; inconclusive = small, poorly fitted or top-dose-only inhibition, or a rising curve; inactive = flat fitted curve, though single readings scatter; no compound was filed as active;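 note: 0% = full activity with enzyme and -100% = basal without enzyme; dose as in the result columns while the protocol names 77 µM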
Numbers without * were called inactive; ? = inconclusive; / = not tested or not shown; & = joins results of further samples. This is a subset (hit frequency here may not be typical).

canonical_smiles	miR-21 reporter	Rango-impB inh	Rango release inh	GLA inh pH 4.5
CCOC(=O)N1CCN(C(=S)NC(=O)c2nn(C)cc2Br)CC1	0%	3.0%	-13%	8
N=C1c2c(cc(=O)n3c2[nH]c2ccccc23)CN1CCN1CCOCC1	-5%	?	21µM*	15
Cc1noc(NS(=O)(=O)c2ccc(NC(=O)/C=C/c3ccc(Br)cc3)cc2)c1C	0%	3.1%	-13%	/
S=C1NCCOCCOCCOCCNC(=S)N2CCOCCOCCN1CCOCCOCC2	-3%	0.5%	18%	2
Cc1cc(C(=O)c2ccc(C(C)(C)C)cc2)c(NC(=O)CCl)s1	-8%	0.6%	-17%	?
CCCN1CCC(NC(=O)Cc2cccc(C)c2)CC1	8%	0.2%	-4%	/
O=C(NC1CCCCC1)C1CCCN(c2nnnn2-c2ccccc2)C1 (centres undefined)	-1%	-0.5%	4%	3
CCn1c(COc2ccc(Cl)c(C)c2)nnc1SCC(=O)N1CCCC1	0%	-0.9%	1%	-17

(more compounds)
canonical_smiles	miR-21 reporter	Rango-impB inh	Rango release inh	GLA inh pH 4.5
O=C(CSCc1ccc(F)cc1)NCc1cccs1	-17%	1.7%	2%	1
CCOC(=O)c1sc(Nc2nc3c(OC)cccc3s2)cc1C	17%	?	?	1
COc1cc(CN(C(=O)c2ccco2)C2CCS(=O)(=O)C2)cc(OC)c1OC (centres undefined)	0%	-0.9%	?	/
Cc1cc(NC(=O)CSc2nnnn2-c2ccccc2)no1	-1%	0.1%	-23%	-12
COc1ccc(NC(=O)c2ccc3ccccc3c2)cc1	-55%	-3.4%	-1%	/
Cc1ccc(C2=NC(C)(C)NC2=O)cc1	-6%	1.7%	7%	6
COc1ccc(-c2nc3c(C(=O)NCCN(C)C)cccc3c3ccccc23)cc1	/	2.3%	-8%	/
COc1ccc(C(=O)/C=C2/c3ccccc3CC(C)(C)N2C)cc1OC	0%	-2.6%	4%	-10

(list continues)
canonical_smiles	miR-21 reporter	Rango-impB inh	Rango release inh	GLA inh pH 4.5
Cc1cc(C)nc(NC(=O)NS(=O)(=O)Nc2ccc(Br)cn2)n1	-2%	-1.7%	-13%	6
CNc1nnc(-c2ccco2)s1	-9%	-1.3%	3%	-7
CC1CCCC(C)N1C(=O)Cn1nnc(-c2ccccc2)n1 (centres undefined)	-6%	1.3%	3%	/
N#CC1(c2ccccc2)CCC(=O)N1c1ccccc1 (centres undefined)	-2%	-2.5%	12%	2
Cc1[nH]c2ccccc2c1-c1ccc(Cl)nn1	-6%	-1.1%	9%	6
COc1ccc(/C=N/OCC(=O)N=Nc2c(O)[nH]c3ccc(Br)cc23)cc1OC	-7%	-2.9%	-10%	-4
COc1ccc([C@@H]2[C@@H]3C(=O)N(C(C)(C)C)C(=O)[C@@H]3[C@]3(Cc4ccc(Cl)cc4)C(=O)N(c4cccc(F)c4)C(=O)N23)cc1	/	-0.4%	5%	/
O=C(c1cccc(F)c1)N1CCCC(C(=O)N2CCCCCC2)C1 (centres undefined)	0%	-2.5%	1%	/

Entries above containing sulfur (11):
canonical_smiles	miR-21 reporter	Rango-impB inh	Rango release inh	GLA inh pH 4.5
CCOC(=O)N1CCN(C(=S)NC(=O)c2nn(C)cc2Br)CC1	0%	3.0%	-13%	8
Cc1noc(NS(=O)(=O)c2ccc(NC(=O)/C=C/c3ccc(Br)cc3)cc2)c1C	0%	3.1%	-13%	/
S=C1NCCOCCOCCOCCNC(=S)N2CCOCCOCCN1CCOCCOCC2	-3%	0.5%	18%	2
Cc1cc(C(=O)c2ccc(C(C)(C)C)cc2)c(NC(=O)CCl)s1	-8%	0.6%	-17%	?
CCn1c(COc2ccc(Cl)c(C)c2)nnc1SCC(=O)N1CCCC1	0%	-0.9%	1%	-17
O=C(CSCc1ccc(F)cc1)NCc1cccs1	-17%	1.7%	2%	1
CCOC(=O)c1sc(Nc2nc3c(OC)cccc3s2)cc1C	17%	?	?	1
COc1cc(CN(C(=O)c2ccco2)C2CCS(=O)(=O)C2)cc(OC)c1OC (centres undefined)	0%	-0.9%	?	/
Cc1cc(NC(=O)CSc2nnnn2-c2ccccc2)no1	-1%	0.1%	-23%	-12
Cc1cc(C)nc(NC(=O)NS(=O)(=O)Nc2ccc(Br)cn2)n1	-2%	-1.7%	-13%	6
CNc1nnc(-c2ccco2)s1	-9%	-1.3%	3%	-7

Other results:
canonical_smiles	miR-21 reporter	Rango-impB inh	Rango release inh	GLA inh pH 4.5
O=C(NCc1ccccc1Cl)c1ccc(CS(=O)Cc2ccc(Cl)cc2)o1 (centres undefined)	4%	-0.3%	?	/
CCN1CCN(c2ncc(C(=O)Nc3ccccc3C(=O)OC)c3ccccc23)CC1	-3%	-0.1%	-11%	-2
CCN1CCN(C(=O)Cn2nc(C)c3sc4ccccc4c3c2=O)CC1	1%	3.6%	1%	/
CCOC(=O)c1c(NC(C)=O)sc(C(=O)NC2CCCC2)c1C	0%	-1.5%	-6%	/
N#Cc1cn(CCCOc2ccccc2)c2ccccc12	-22%	-2.2%	18%	-11
CC1CCCC(C)N1C(=O)COc1ccccc1F (centres undefined)	-4%	-1.3%	10%	14
Cc1ccc2nc3c(c(C(=O)OC4CCOC4=O)c2c1)CCCC3 (centres undefined)	0%	-2.4%	16%	5
COc1ccc(OC)c(C(=O)c2coc3ccc(O)c(CN(C)C)c23)c1	-1%	9.7%	-7%	/

(list continues)
canonical_smiles	miR-21 reporter	Rango-impB inh	Rango release inh	GLA inh pH 4.5
Cc1nc(-c2ccc(C(=O)Nc3cccc(Br)c3)cc2)cs1	9%	3.2%	-10%	1
COc1cc(/C=N/NC(=O)c2ccncc2)ccc1OCC(=O)Nc1cccc([N+](=O)[O-])c1	-1%	-0.9%	-1%	/
COc1ccc(-c2cc(C(F)(F)F)nc(SCC(N)=O)n2)cc1	-7%	1.4%	-1%	2
c1ccc2sc(SCSc3nc4ccccc4s3)nc2c1	-34%	-0.5%	19%	-2
Cc1oc(-c2ccccc2)nc1C(=O)N1CCN(c2ccc(F)cc2)CC1	-3%	-1.9%	7%	-1
Cc1cc(C)cc(NC(=S)N(CCN(C)C)Cc2cccs2)c1	0%	-3.0%	-13%	-4
O=c1cc(CSc2n[nH]c(-c3ccncc3)n2)nc2sccn12	-6%	-2.3%	?	-2
Cn1nnnc1NCc1ccccc1F	1%	0.0%	-4%	/

More records follow:
canonical_smiles	miR-21 reporter	Rango-impB inh	Rango release inh	GLA inh pH 4.5
CCSc1ncc(C#N)c(=O)[nH]1	-6%	-0.2%	-14%	0
Cc1ccc(S(=O)(=O)N2CCN(C(=O)COC(=O)CCOc3cc(C)ccc3C)CC2)cc1	/	5.3%	0%	/
CC(OC(=O)c1nn(C)c(=O)c2ccccc12)C(=O)NCc1ccc2c(c1)OCO2 (centres undefined)	-1%	-2.8%	-1%	1
Cc1c(OCC(=O)NCc2ccccn2)ccc2c(-c3ccccc3)cc(=O)oc12	0%	-0.5%	-12%	/
Cc1cccc(C(C)C)c1NC(=O)Cc1ccc(S(=O)(=O)N2CCOCC2)s1	/	0.4%	3%	/
COc1ccc(S(=O)(=O)N(C)C)cc1NC(=O)COC(=O)c1nc2nccc(C)n2n1	2%	0.0%	18%	-2
COc1ccc(CCN2CC(C(=O)Nc3ccc4c(c3)OCO4)CC2=O)cc1OC (centres undefined)	-1%	-3.7%	3%	2
CC1(C)Cc2cccc(OCC(=O)NCCOc3ccccc3)c2O1	-13%	-1.9%	-2%	3

The results go on:
canonical_smiles	miR-21 reporter	Rango-impB inh	Rango release inh	GLA inh pH 4.5
O=C(Cn1nc(C(F)F)cc1C(F)F)NNC(=S)Nc1ccc(F)cc1	-4%	0.2%	-12%	-11
Cc1cccc(C)c1NC(=O)CNC(=O)CNC(=O)c1ccc2c(c1)OCO2	/	-0.2%	0%	/
Cc1cc(N/N=C/c2cccc([N+](=O)[O-])c2)nc(-n2nc(C)cc2C)n1	6%	2.6%	8%	0
CN(C)CCNC(C(=O)Nc1cccc(S(=O)(=O)N2CCOCC2)c1)c1ccccc1 (centres undefined)	/	-1.7%	7%	/
CCOC(=O)c1c(S(=O)(=O)N2CCCC(C(=O)Nc3ccc(C)cn3)C2)c(C)n(C)c1C (centres undefined)	4%&13%	1.6%	49%	/
Cc1ccc(NS(=O)(=O)c2ccc3c(c2)CC(=O)N3)c(C)c1	-4%	-0.5%	18%	/
COc1cc(C(=O)NCc2cccc(Cl)c2)ccc1OCC(=O)N1CCOCC1	/	-0.8%	4%	/
CCN(CC)CCNC(=O)Cn1nc(Cc2ccncc2)c2ccccc2c1=O	0%	-0.5%	-1%	/

Part of the list above, reformatted.
> Cc1ccc(NS(=O)(=O)c2ccc3c(c2)CC(=O)N3)c(C)c1
  miR-21 reporter = -4%
  Rango-impB inh = -0.5%
  Rango release inh = 18%
  GLA inh pH 4.5 = /
> Cc1cc(N/N=C/c2cccc([N+](=O)[O-])c2)nc(-n2nc(C)cc2C)n1
  miR-21 reporter = 6%
  Rango-impB inh = 2.6%
  Rango release inh = 8%
  GLA inh pH 4.5 = 0
> CCOC(=O)c1c(S(=O)(=O)N2CCCC(C(=O)Nc3ccc(C)cn3)C2)c(C)n(C)c1C (centres undefined)
  miR-21 reporter = 4%&13%
  Rango-impB inh = 1.6%
  Rango release inh = 49%
  GLA inh pH 4.5 = /
> COc1cc(C(=O)NCc2cccc(Cl)c2)ccc1OCC(=O)N1CCOCC1
  miR-21 reporter = /
  Rango-impB inh = -0.8%
  Rango release inh = 4%
  GLA inh pH 4.5 = /

Additional compounds follow.
canonical_smiles	miR-21 reporter	Rango-impB inh	Rango release inh	GLA inh pH 4.5
O=C(Nc1nccs1)C1CC(=O)N(CCc2ccccc2)C1 (centres undefined)	/	-4.7%	11%	/
Cc1cc(Nc2cccc(Br)c2)c2ccccc2n1	/	2.3%	25%	/
CCOC(=O)c1c(S(=O)(=O)Nc2ccc(F)cc2Cl)c(C)n(C)c1C	-6%	-1.3%	-5%	/
Cc1cc(C)nc(N2CCN(S(=O)(=O)c3ccc(F)cc3)CC2)n1	-2%	0.4%	1%	/
COc1cc(/C=C/C(=O)N(C)CC(=O)Nc2ccccc2SC)cc(OC)c1OC	/	-0.4%	0%	/
O=C(OCC(=O)c1ccc[nH]1)c1ccc(Br)cc1	/	0.2%	2%	/
CN(Cc1c(F)cccc1Cl)S(=O)(=O)c1cccs1	-9%	-2.7%	-1%	/
O=C(N/N=C/c1cccc(Oc2ccccc2)c1)c1cc[n+]([O-])cc1	-4%	2.7%	4%	-1

Continuation:
canonical_smiles	miR-21 reporter	Rango-impB inh	Rango release inh	GLA inh pH 4.5
CCCOc1ccc(/C=N/NC(=O)C2CC2)c(OCCC)c1	8%	-2.3%	19%	/
COc1ccc(/C=N\NC(=O)c2cccc(Br)c2)c(OC)c1	-2%	0.0%	5%	-1
COc1ccc(CC(C)N2CCN(Cc3ccccc3)CC2)c(OC)c1 (centres undefined)	2%	0.5%	-1%	-11
O=C(Nc1ccccc1)C1CC=CCC1C(=O)OCC1CCCO1 (centres undefined)	0%	1.2%	0%	10
COc1cc(/C=N\Nc2ccc([N+](=O)[O-])cc2)ccc1OCC(=O)Nc1ccc(C)c(C)c1	-3%	?	?	4
O=C(c1cccc(Oc2ccccc2)c1)N1CCOCC1	-8%	-0.9%	-2%	/
O=C(C1=C[C@@H](c2coc3ccccc3c2=O)C[C@@H](OCc2ccc(CO)cc2)O1)N1CCOCC1	-5%	-3.3%	0%	-1
O=C(N/N=C/C=C/c1ccccc1[N+](=O)[O-])c1cc(-c2ccccc2)n[nH]1	-5%	3.9%	-13%	2
CN(Cc1ccccc1)C(=O)c1nc2ccccn2c1CN1CCc2sccc2C1	-1%	-1.5%	-4%	4
CCc1cc(=O)oc2cc(OCC(=O)N3CC[C@@]4(O)CCCC[C@H]4C3)ccc12	-3%	4.1%	35%	/
CCn1c(SCc2nnc(-c3ccccc3)o2)nc2c1c(=O)n(C)c(=O)n2C	0%	/	/	-2
